MLL AF4-AF9 inh = inhibitors of human MLL-AF4/AF9 interaction | 350,000 tested, 0.47% active | P42568 | AlphaScreen, biotin-AF4 peptide binding to FLAG-AF9 | inhibition, % at 10 µM;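 active means every replicate reaching a set inhibition limit, whatever the replicate mean, cut at about 25% in these data; inconclusive means mean inhibition reaches that limit but some replicates miss it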;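 further: 0% = plate neutral control median and 100% = total signal loss; the record names both 10 and 1 µM as test concentration; the first replicate is given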
UCH37 DUB inh = blocks the human deubiquitinase UCH37 | Q9Y5K5 | purified proteasome/UCH37, Ub-AMC cleavage fluorescence | inhibition, % (no concentration beside the values) | 330,000 tested, 0.33% active;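 active means mean of two replicates above 20%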;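 further: 0% = compound-free wells with enzyme and 100% = wells lacking proteasome; stock transfer was 100 nL into about 20 µL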
Target sequence (Q9Y5K5 whole entry, looked up): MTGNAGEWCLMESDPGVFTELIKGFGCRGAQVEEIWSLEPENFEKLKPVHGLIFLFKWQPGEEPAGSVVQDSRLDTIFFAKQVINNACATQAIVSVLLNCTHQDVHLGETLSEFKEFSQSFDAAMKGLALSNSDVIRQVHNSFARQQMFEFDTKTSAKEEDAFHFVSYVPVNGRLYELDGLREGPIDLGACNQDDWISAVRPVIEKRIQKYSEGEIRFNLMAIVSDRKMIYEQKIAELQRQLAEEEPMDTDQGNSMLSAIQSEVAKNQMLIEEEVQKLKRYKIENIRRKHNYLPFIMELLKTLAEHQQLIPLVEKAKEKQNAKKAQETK
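Test system – human UCH37 enzyme supplied as purified proteasome complex · Incubation – 30 min preincubation with enzyme, 25 min cleavage at room temperature · Detection – AMC fluorescence from Ub-AMC cleavage, excitation 355 nm, emission 460 nm · Benchmarks – no-proteasome wells (full inhibition) and compound-free wells (no inhibition)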
A1 inh = inhibitors of the anti-apoptotic protein A1, read as caspase activation; MEF A1-2A-BIM cells, Caspase-Glo 3/7 luminescence, 3 h; percent of clofoctol response, vehicle zero; caspase activation, % (no concentration beside the values); 330,000 tested, 0.066% active; AID 2462;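 active means over half of replicate activation scores above 10%, or exactly half above 10 with the replicate mean above 10; inconclusive means replicate mean below 10 yet half the replicates above 10; inactive means over half of replicates below 10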;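 further: wells of about 30 µL received 50 nL stock; many hits fall short of the cut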
Ecoli rRNA inh = selective bacterial rRNA inhibition in E. coli; GFP signal change (wild-type ribosome), % (no concentration beside the values); AID 720706; E. coli WT GFP vs humanized-ribosome RFP mutants, fluorescence, 24 h; active compounds read low; DMSO median 0, no signal -100; 350,000 tested, 1.6% active;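 active means significant combined selectivity score with lowered wild-type GFP, culture density cut under 30%, mutant RFP and density less affected; inactive means any of these conditions unmet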; further: one replicate is shown; some compounds called inactive have numbers as strong as hits
Ecoli growth = inhibitors of Escherichia coli growth; OD600, 23 h; active compounds read low; 330,000 tested, 0.21% active; OD600 absorbance (test concentration not listed);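 active means OD600 absorbance below the run mean of sample wells minus 3.6 SD, in any replicate, cut at about 0.56 in these data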;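 further: stock transfer was 300 nL into about 60 µL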
FGF22 binding = FGF22 (human) thermal shift binding. recombinant FGF22 thermal shift, SYPRO orange fluorescence; percent of sucrose octasulfate shift, DMSO zero. calls only at 9.99 µM. 340,000 tested, 1.5% active;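 active means melting point raised past a set limit in the mean and every replicate; inconclusive means no clear call; three in four hits are not shown here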
Target sequence (Q9HCT0 whole entry, looked up): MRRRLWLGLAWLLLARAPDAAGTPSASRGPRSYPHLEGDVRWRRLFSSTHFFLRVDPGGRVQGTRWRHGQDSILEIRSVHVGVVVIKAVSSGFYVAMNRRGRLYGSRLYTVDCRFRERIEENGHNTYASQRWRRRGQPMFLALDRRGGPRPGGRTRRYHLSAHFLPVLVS
Beta cell apopt = beta cell apoptosis inhibition | protection from apoptosis, % (test concentration not listed) | 300,000 tested, 0.8% active | INS-1E cytokine-induced death, ATP luminescence, 48 h; percent of positive-control rescue, neutral wells zero;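 active means all replicates at 75% or more, or half of them and the mean; inconclusive means half reach 75% but not the mean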;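 further: 0% = cytokine-treated negative control wells and 100% = positive control rescue; higher means more ATP so stronger rescue from cytokine killing; wells of about 40 µL received 100 nL stock; the first replicate is given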
T cruzi repl = T. cruzi replication inhibition; T. cruzi beta-gal in NIH3T3, luminescence, 90 h; inhibition, % (concentration not given with the values); 300,000 tested, 1.4% active; AID 1885;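 active means mean inhibition across valid replicates above about 55%, limit read from the data; inconclusive means mean below that limit but half or more replicates reach it; inactive means mean below it, under half of replicates reach it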;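 further: signal also drops with host cell toxicity which is not excluded here; 0% = plate median of DMSO wells and 100% = zero luminescence signal; higher percent means less beta-gal luminescence so fewer parasites; stock transfer was 50 nL into about 50 µL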
Ecoli rRNA inh OD600 = further read-out of Ecoli rRNA inh, marked with its call; OD600 change, %; measured here: OD600 growth;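 optical density of the mix in the first replicate; 0 = DMSO median and -100 = no signal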
Ecoli rRNA inh RFP = further read-out of Ecoli rRNA inh, marked with its call; RFP signal change, %; measured here: RFP humanized mutant strains;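 first replicate; 0 = DMSO median and -100 = no signal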
* marks the source's active call; other numbers are inactive results; i = inactive; ? = inconclusive; · = not tested or not shown. This is a subset; count on the stated rates, not on these rows.

SMILES	T cruzi repl	Ecoli growth	MLL AF4-AF9 inh	Ecoli rRNA inh OD600	UCH37 DUB inh	FGF22 binding	Beta cell apopt	A1 inh	Ecoli rRNA inh	Ecoli rRNA inh RFP
COc1ccc(CCNC(=O)c2cccc(NC3=NC4CS(=O)(=O)CC4S3)c2)c(OC)c1 (centres undefined)	-13.2	0.735	1.3	0.8	5.4	i	2.7	1.2	8.2	0.7
Cc1nnnn1CC(=O)Nc1ccccc1[N+](=O)[O-]	-0.4	0.694	·	·	0.9	·	-9.7	-0.1	·	·
COc1ccc(CNC(=O)Cn2ccc(N)nc2=O)cc1	·	0.655	·	3.4	3.1	i	1.1	-0.4	5.1	-2.3
COc1ccc(CC(=O)OCC(=O)NC2CCCCC2)cc1OC	·	0.721	-4.1	2.5	2.4	i	-14.5	?	8.4	1.8
COc1ccc(-c2cc(C)no2)cc1S(=O)(=O)N(C)c1ccc(C)c(C)c1	6.0	0.705	-2.4	-29.1	1.4	i	1.4	0.8	-5.2	1.4
CCc1ccc2[nH]c(=O)c(CN(CC3CCCO3)C(=S)NCc3ccco3)cc2c1 (centres undefined)	11.3	0.7	1.2	-5.8	-0.4	i	-7.7	0.5	-1.5	-4.5
COc1cccc(C2=CC(c3cccs3)n3nnnc3N2)c1 (centres undefined)	-2.2	0.685	·	·	4.1	·	9.0	-0.5	·	·
O=C(CCC1CCCC1)Nc1cccn(Cc2ccccc2Br)c1=O	-2.8	0.709	2.9	-25.2	-2.6	i	2.0	-0.1	-27.6	-6.0
O=C(N/N=C/c1cccc([N+](=O)[O-])c1)c1ccc(CN2CCOCC2)cc1	-0.6	·	-1.6	8.8	·	i	8.6	0.7	10.2	-0.4
Cc1ccc(-c2nn(-c3cccc(F)c3)cc2CN2CCN(c3ccccn3)CC2)o1	21.2	0.701	4.2	-13.7	-3.5	i	0.5	0.9	-21.1	14.3
CCOc1ccccc1NC(=O)CCS(=O)(=O)c1cccs1	-6.0	0.691	-1.0	9.5	5.6	i	-5.0	-0.3	2.9	1.3
CC(C)(C)NC(=O)NC(=O)CN1CCCCCCC1	4.0	0.646	-0.1	20.8	1.6	i	-2.5	-0.5	17.2	-1.0
COc1ccc(Cl)cc1NC(=O)C(C)N(C)Cc1cccc(Cl)c1Cl (centres undefined)	19.7	0.707	-1.6	·	1.5	i	4.4	0.7	·	·
CC(C)c1ccc(-n2nnnc2SCC(=O)NC2CC2)cc1	·	·	-4.6	-2.2	·	i	-10.9	-0.7	1.0	-3.3
CCN1C[C@@H]2[C@@H]3C(=O)N(C)C(=O)[C@@H]3[C@](Cc3ccccc3)(C1=O)N2C(=O)c1ccccc1	·	·	-1.9	5.0	1.4	i	·	·	13.7	3.8
COc1ccc(/C=C/C(=O)O)cc1S(=O)(=O)N1CCCCC1	-6.5	0.632	-0.8	1.3	1.2	i	-4.3	1.9	4.6	-3.6
CCOc1ccc(NC(=O)CC2Nc3ccccc3NC2=O)cc1 (centres undefined)	-5.5	0.672	-2.4	-10.1	-2.4	i	-5.7	0.2	-9.7	-0.2
Clc1ccc(-c2cn(-c3ccccc3)c3[n+]2CCS3)cc1	41.4	0.675	0.0	-3.4*	2.5	i	9.8	1.7	-18.0*	5.1*
COc1ccc(-n2c(SCC(=O)NCc3ccco3)nnc2-c2c[nH]c3ccccc23)cc1	4.7	0.722	11.2	-16.1	4.6	i	-10.2	-1.0	-0.4	3.4
CCOC(=O)c1sc(NC(=O)CSc2nnc(-c3ccc(OC)cc3)n2CCOC)nc1C	-2.3	0.722	·	·	1.9	·	-2.3	-0.3	·	·
CC(C)C1(C)C(=O)N=C2c3ccccc3C(=O)N21 (centres undefined)	-7.8	0.727	·	·	0.4	·	-10.3	1.6	·	·
COC(=O)/C=C1\C(=O)N(c2nc3ccc(OC)cc3s2)C(=S)N1c1ccc(F)cc1	18.9	0.652	·	·	-1.4	·	-1.7	-0.2	·	·
CC1CCc2c(sc3nc4n(c(=O)c23)CCS4)C1 (centres undefined)	13.5	0.667	·	·	7.1	·	1.3	-1.4	·	·
COc1ccccc1OCc1nc(C#N)c(N2CC(C)CC(C)C2)o1 (centres undefined)	10.4	·	10.4	-27.9	·	i	-0.3	1.5	-20.6	-12.8
CCCCOCCCNS(=O)(=O)Cc1ccccc1	-0.9	0.667	·	·	3.6	·	-1.1	1.0	·	·
COCCN(C(=O)COc1ccc(Cl)cc1)c1nnc(-c2cccnc2)s1	-2.2	0.79	·	·	-4.2	·	2.7	0.1	·	·
Cc1cc(C(=O)OCC(=O)NCCc2ccccc2)c2ccccc2n1	·	0.729	-4.2	-12.7	-3.3	i	-3.2	0.9	-11.1	-0.4
O=C(COC(=O)c1cc(Cl)ccc1[N+](=O)[O-])Nc1cccc2ccccc12	-4.1	0.697	3.9	-2.8	5.6	i	-3.1	0.2	-0.3	-0.2
CCCNC(=O)C1CCN(S(=O)(=O)c2cccs2)CC1	4.8	0.725	-2.3	12.1	3.8	i	-6.3	0.6	11.5	-0.5
Cc1nc2c(C(=O)NCCC(C)C)c[nH]n2c(=O)c1Cl	-6.0	0.662	·	·	1.6	·	-13.4	0.0	·	·

Sorted by number of heavy atoms (highest first): some entries from above.
SMILES	T cruzi repl	Ecoli growth	MLL AF4-AF9 inh	Ecoli rRNA inh OD600	UCH37 DUB inh	FGF22 binding	Beta cell apopt	A1 inh	Ecoli rRNA inh	Ecoli rRNA inh RFP
CCOC(=O)c1sc(NC(=O)CSc2nnc(-c3ccc(OC)cc3)n2CCOC)nc1C	-2.3	0.722	·	·	1.9	·	-2.3	-0.3	·	·
CCc1ccc2[nH]c(=O)c(CN(CC3CCCO3)C(=S)NCc3ccco3)cc2c1 (centres undefined)	11.3	0.7	1.2	-5.8	-0.4	i	-7.7	0.5	-1.5	-4.5
CC(C)(C)NC(=O)NC(=O)CN1CCCCCCC1	4.0	0.646	-0.1	20.8	1.6	i	-2.5	-0.5	17.2	-1.0

(listing goes on)
SMILES	T cruzi repl	Ecoli growth	MLL AF4-AF9 inh	Ecoli rRNA inh OD600	UCH37 DUB inh	FGF22 binding	Beta cell apopt	A1 inh	Ecoli rRNA inh	Ecoli rRNA inh RFP
CCCCC(=O)Nc1ccc(NC(=O)C2CC2)nc1	0.4	0.752	·	·	-0.6	·	-4.4	-1.3	·	·
Cc1ccc(-n2c(-c3cc(C)n(C)n3)n[nH]c2=S)cc1	-3.9	0.679	·	·	5.2	·	0.7	0.1	·	·
O=C(Cc1ccccc1)Nc1ccccc1C(=O)N1CCN(c2ccccc2)CC1	1.8	0.713	1.7	-3.6	1.3	i	1.7	-0.7	4.1	10.7
Fc1ccc(F)c(C2=NNC(=Nc3ccccc3F)SC2)c1	-0.6	0.65	1.7	-1.1	0.5	i	37.1	-0.7	2.9	-0.5
Cc1c(OCC(=O)NCC2CCC(C(=O)O)CC2)ccc2c(-c3ccccc3)cc(=O)oc12 (centres undefined)	9.9	0.702	3.7	·	3.9	i	3.2	0.2	·	·
COc1ccccc1CN1CCC(n2nccc2NC(=O)CCc2ccccc2)CC1	1.8	0.68	3.8	13.4	-0.6	i	-0.3	1.8	2.3	2.1
CCC(=O)Nc1cc2nn(-c3ccccc3)nc2cc1Cl	-8.5	0.763	·	·	-20.6	·	-8.0	-8.8	·	·
O=C(c1ccco1)N1CCN(c2ccnc3cc(Cl)ccc23)CC1	-1.2	0.672	-1.2	-7.7	6.8	i	-4.0	0.2	-3.2	0.1
Cc1cc(C)n(Cc2ccc(F)cc2)c(=O)c1C#N	-13.2	0.675	-33.4	5.0	-1.9	i	0.4	0.1	13.3	1.9
Cc1cc(N2C(=O)C(O)=C(C(=O)c3cc4ccccc4o3)C2c2ccc([N+](=O)[O-])cc2)no1 (centres undefined)	-4.9	0.711	2.1	9.3	9.1	i	4.2	0.8	3.5	2.1
CCCN(Cc1cc2cc(OC)ccc2[nH]c1=O)C(=O)c1ccco1	-20.8	0.647	-11.1	-0.6	-59.0	i	-15.8	-0.5	6.7	-1.3
Cn1c(=O)c2ccccc2n(CC(=O)NCCC2=CCCCC2)c1=O	-3.7	0.731	-1.0	-1.7	32.3*	i	3.1	-1.5	5.4	-1.7
CCN(CC(=O)Nc1ccccc1OC)C(=O)CN1C(=O)NC(C)(c2ccc(C)cc2)C1=O (centres undefined)	·	0.707	2.0	8.4	2.0	i	6.0	-0.5	11.1	6.0
CC(=O)Nc1nc2ccc(-c3nc4ccccc4o3)cc2s1	-2.5	0.692	·	·	-44.0	·	3.3	-3.4	·	·
Cc1c(NC(=O)C2C3C=CC(C3)C2C(=O)O)c(=O)n(-c2ccccc2)n1C (centres undefined)	11.4	0.672	1.1	14.7	1.0	i	-1.2	-1.8	9.4	-1.0
COc1ccc(CNC(=O)Cn2nc([N+](=O)[O-])cc2C)cc1	-26.0	0.651	-0.4	10.9	0.9	i	-11.0	-0.4	4.0	0.9
CN(C)c1ccc(C(=O)Nc2ccc(S(=O)(=O)Nc3nccs3)cc2)cc1	-2.0	0.731	-3.0	2.1	-33.7	i	2.6	0.6	-1.3	-4.5
CCOc1ccc(Oc2ccccc2NC(=O)CSCC(=O)Nc2cc(C)on2)cc1	-7.2	0.697	3.6	-2.7	-2.2	i	-4.8	-0.1	-2.4	2.9
COc1cccc(NC(=O)NC(C)C2CC3CCC2C3)c1 (centres undefined)	16.1	0.633	·	·	-0.8	·	3.5	?	·	·
Cc1cc(C)c(NS(=O)(=O)c2cccc3cccnc23)c(C)c1	-0.8	0.709	1.7	-20.5	3.5	i	0.5	-0.5	-11.9	-3.4
CCSCc1nnc(SCC(=O)c2ccc(OC)cc2)n1C	2.0	0.704	·	·	2.7	·	-5.3	0.1	·	·
O=C(COC(=O)Cc1ccc(S(=O)(=O)N2CCOCC2)s1)Nc1ccc(OC(F)F)cc1	·	0.66	-1.8	5.6	2.2	i	2.4	0.3	4.8	6.6
